Compound activity as filed in PubChem.
BJeLR lethal – kills HRASV12-expressing BJeLR cells. AID 1554. inhibition, % (no concentration beside the values). 0.17% of 300,000 active. BJeLR (HRASV12) viability, CellTiter-Glo ATP luminescence, 48 h; reference of the scale not given here;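 active = replicate mean above 50%; inconclusive = above 50% but judged a plate artefact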;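 note: 50 nL library stock added to about 25 µL; numbers are from one replicate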
ugtP null kill – compounds lethal to S. aureus RN4220 ugtP deletion mutant | 0.54% of 330,000 active | OD600 growth, 16 h; some inactives read as strong as hits | AID 1259309 | growth inhibition, % (test concentration not listed);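 active = z-score under -3 and OD600 up to 0.15 on both plates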;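 note: plate controls were untreated wells for no effect and antibiotic for full effect; wells of about 80 µL received 100 nL stock; the first replicate is given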
Bead autofluor – compound fluorescence in toxin protease inhibitor counterscreen. compound autofluorescence counterscreen, microsphere flow cytometry; stronger effect = higher value. 3.1% of 360,000 active. fluorescence intensity (test concentration not listed);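 active = at least 3 SD above the mean of all compounds, about 16000 in these data; inconclusive = too few beads counted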;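 note: 100 nL of 1 mM stock went into each well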
Mtb hypoxia rep – inhibitors of hypoxia-regulated fluorescent reporter in Mycobacterium tuberculosis; fluorescence inhibition, % (no concentration beside the values); M. tuberculosis hypoxia-regulated fluorescent reporter, fluorescence; 0.1% of 300,000 active;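 active = 35 to 45% if threefold the growth effect, above 45% if 1.5-fold the growth effect; inactive = the rest, general growth blockers included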;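 note: wells of about 50 µL received 100 nL stock; 0% = vehicle wells and 100% = reference inhibitor wells; whole bacteria with a GFP reporter of the hypoxia response; strong numbers were not always called active; many hits fall short of the cut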
PrP UTR inh – suppresses PrP 5' UTR mRNA reporter expression; cell-based PrP 5' UTR mRNA reporter, plate reader; inhibition, % (concentration not given with the values); AID 488862; 0.35% of 340,000 active;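 active = every replicate at 50% or more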;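 note: 0 = median of the neutral control wells; tested in H4 reporter cells; numbers are from one replicate; inactives centre near -14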
Sa RN4220 lethal – kills Staphylococcus aureus RN4220; S. aureus RN4220 growth, OD600, 16 h; inhibition, % (test concentration not listed); 0.33% of 330,000 active; AID 1259311;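 active = z-score of -3 or lower and OD600 up to 0.18 on both plates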;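 note: plate controls were untreated cells for no effect and reference antibiotic for full effect; stock transfer was 100 nL into about 80 µL; one replicate is shown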
Mtb hypoxia rep growth – second read-out of Mtb hypoxia rep, no call of its own (marks repeat the call); growth inhibition, %; measured here: M. tuberculosis growth (absorbance);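 0% = vehicle and 100% = reference antibiotic; read after six days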
* hit, by the source's call; ? = inconclusive; nt = not tested or not shown.

SMILES	BJeLR lethal	ugtP null kill	Bead autofluor	Mtb hypoxia rep	Mtb hypoxia rep growth	PrP UTR inh	Sa RN4220 lethal
Cc1c(C(=O)N(C)c2ccccc2)oc2c1C(O)CC(C)(C)C2 (stereo unspecified)	-5	-3	5742	9	9	5	5.4
O=C(COC(=O)C1CC2C=CC1C2)Nc1ccccc1[N+](=O)[O-] (stereo unspecified)	nt	8	5467	3	8	-18	6.5
NCCCCc1cn(CC(=O)N2CCNCC2)nn1	-6	-3	3827	9	-5	16	2.9
CCOC(=O)C1(Cc2cccc(F)c2)CCN(Cc2cnn(CC)c2)CC1	2	3	4471	3	3	-10	7.5
Cc1cccc(OCCCn2ccnc2)c1	5	12	21296*	6	1	7	6.0
CCN(CC)CCCNC1=C(Cl)C(=O)c2ccccc2C1=O	-2	0	3230	4	0	-5	26
Cc1cc(C)c2cc(CNC3CCCC3)c(Cl)nc2c1	3	5	4639	-6	2	-53	11
Cc1cccc(C(=O)N[C@H](C(=O)Nc2ncc(C)s2)C(C)C)c1	13	8	4438	5	6	-18	-0.5
CCN1CCN(Cc2ccc(C)cc2C)CC1	1	1	9203	-5	3	-26	1.1
Cc1cccc(NC(=O)COC(=O)c2ccc(C)c(S(=O)(=O)N3CCCCC3)c2)c1	nt	-1	?	0	2	nt	1.7
NC(=O)C1CCCN(Cc2ccc3ccccc3c2)C1 (stereo unspecified)	-1	13	4053	8	1	-41	2.7
Cc1ccc(N(C)C(=O)CCS(=O)(=O)c2cc3c(cc2Cl)NC(=O)CO3)cc1	-2	-8	6006	-2	-3	2	-2.2
O=C(COc1ccccc1)NNC(=O)c1cc2ccccc2oc1=O	13	nt	2210	nt	nt	-10	nt
CCC(C)c1ccccc1N1CC(C(=O)Nc2ccc(N3CCOCC3)cc2)CC1=O (stereo unspecified)	nt	-1	3609	4	-4	-26	1.6
N#Cc1ccccc1NC(=O)COC(=O)/C=C/c1cn(-c2ccccc2)nc1-c1ccc(Cl)cc1	nt	9	4043	-14	-1	-5	-2.1
COc1cc(-c2n[nH]c(=S)n2-c2ccccc2C(F)(F)F)cc(OC)c1OC	-3	8	5943	11	2	-22	2.3
O=C(NCCCN1CCOCC1)c1ccco1	-7	3	4214	nt	nt	-8	1.2
CCc1ccc(C(=O)C23CN4CN(CN(C4)C2)C3)cc1	-1	8	13062	6	1	-21	4.9
CCCC(=O)Nc1ccccc1NC(=O)c1ccc(OC(C)=O)cc1	2	2	4050	5	8	-13	0.7
COc1cccc(C(=O)Nc2cc3c(cc2Cl)OCCCO3)c1	-14	-7	10274	-3	5	-97	2.1
COc1cc(C(=O)NNC(=S)NC(=O)/C=C/c2ccccc2)cc(OC)c1OC	2	-6	3026	-1	-5	0	-0.4
COc1ccc(CC(=O)Nc2ccc(C(C)=NNC(=O)c3ccc(Br)o3)cc2)cc1	nt	2	nt	2	-3	nt	-1.1
COc1cccc(COC(=O)C2CC(=O)N(Cc3ccc(C)cc3)C2)c1OC (stereo unspecified)	-7	3	?	-7	-1	-19	3.0
COc1cc(/C=C2/C(=N)N3C=CSC3=NC2=O)ccc1OCCCOc1ccccc1C	-18	5	4133	16	7	-39	6.0
COC(=O)Cc1ccc(NC(=S)N2CCC(Cc3ccccc3)CC2)cc1	-1	6	3997	3	3	1	1.7

Some values from the results shown.
`COc1cccc(COC(=O)C2CC(=O)N(Cc3ccc(C)cc3)C2)c1OC` (stereo unspecified) – Mtb hypoxia rep growth = -1
`Cc1cc(C)c2cc(CNC3CCCC3)c(Cl)nc2c1` – Sa RN4220 lethal = 11

New compounds follow.
SMILES	BJeLR lethal	ugtP null kill	Bead autofluor	Mtb hypoxia rep	Mtb hypoxia rep growth	PrP UTR inh	Sa RN4220 lethal
COc1cc(/C=C/C(=O)O)cc(OC)c1O	-14	nt	5234	nt	nt	-25	nt
O=C(CCCc1nc(-c2ccc(Cl)cc2)no1)N1CCOCC1	8	8	5296	7	9	-21	1.8
COc1ccccc1NC(=O)CSc1nnc(-c2ccccn2)o1	-5	5	3612	8	12	-22	1.5
CCn1c(SCC(=O)N2CCOCC2)nc2c(c1=O)SC(C)C2 (stereo unspecified)	nt	-4	3713	nt	nt	-19	5.8
Fc1c(F)c(C(F)(F)F)c(F)c(F)c1N1CCN(c2ccc3nnc(C(F)(F)F)n3n2)CC1	-6	-23	4391	nt	nt	-2	-0.3
O=C(CC1C(=O)NCCN1C(=O)Nc1ccc(Cl)cc1)Nc1ccc(F)cc1 (stereo unspecified)	4	-7	3567	5	2	-26	-5.0
O=C(c1cc2n(n1)C(C(F)(F)F)CC(c1ccc(F)cc1)N2)N1CCCC1 (stereo unspecified)	3	-2	6138	2	2	-9	3.2
N=C1C(c2nc3ccccc3s2)=C(O)CN1C1CCC(O)CC1 (stereo unspecified)	0	8	nt	19	3	nt	2.8
COC(=O)c1cc(OC)c(OC)c(OC)c1NC(=O)c1ccc(S(=O)(=O)N(C)C)cc1	-8	6	9406	16	5	-36	2.4
COc1ccc(S(=O)(=O)N(CC(=O)NCC2CCCO2)C2CCCCC2)cc1OC (stereo unspecified)	-3	4	6330	-6	5	12	1.2
CCCCn1c(SCC(=O)NC2CCCC2)nnc1-c1ccco1	7	10	3079	16	0	-17	0.0
COc1cccc(NC(=O)c2ccc3c(c2)N(C)CCS3)c1	15	-14	4707	1	1	-82	2.1
COc1ccccc1N1C(=O)[C@@H]2C(C(=O)CN3C(=O)c4ccccc4C3=O)=NN[C@@H]2C1=O	0	3	6548	17	1	nt	4.9
C=CCOc1ccc(C2C(C(=O)c3ccco3)=C(O)C(=O)N2CCCN(CC)CC)cc1 (stereo unspecified)	-9	2	8866	8	-3	-19	-0.1
O=C(NN=Cc1ccccc1C(=O)O)c1cccc(S(=O)(=O)Nc2cccc(C(F)(F)F)c2)c1	nt	-1	3934	9	5	3	24
CCOc1ccc(NC(=O)c2ccc3c(c2)N(Cc2ccc(F)cc2)C(=O)CS3=O)cc1 (stereo unspecified)	-14	5	5389	nt	nt	-16	2.3
O=c1nccc(N/N=C/c2ccccc2O)[nH]1	7	nt	3615	nt	nt	-1	nt
CN(C)CCN(C(=O)c1ccc(S(=O)(=O)N(C)c2ccccc2)cc1)c1nc2cc3c(cc2s1)OCO3	2	2	5799	1	4	-17	1.2
Cc1cccc(OCc2nnc(-c3ccc(F)cc3)o2)c1	nt	-1	3605	3	0	-15	4.5
CCc1ccccc1N1CCN(S(=O)(=O)c2cc(OC)ccc2OC)CC1	5	7	23647*	3	4	-11	1.0
COc1ccc(CN2CC3CC(C2)c2cccc(=O)n2C3)cc1OC (stereo unspecified)	8	0	9150	-10	-9	0	3.2
Nc1ncnc2nc(SCCN3CCCCC3)[nH]c12	2	12	16379*	-1	-1	-14	5.1
O=c1[nH]c(=S)n(C2CC2)c(O)c1C=NCC1CCCO1 (stereo unspecified)	9	8	4210	16	9	4	4.1
O=C(Nn1c(O)c(C=C2N=c3ccccc3=N2)sc1=S)c1ccc(Cl)cc1	-4	-9	13151	5	11	-16	1.1
CCOc1cc(/C=C2\N=C(C)OC2=O)cc(Br)c1OCCc1ccccc1	14	10	10050	11	-2	-43	-1.2

Some entries already given with just PrP UTR inh and Mtb hypoxia rep growth:
Molecule | PrP UTR inh | Mtb hypoxia rep growth
O=C(CC1C(=O)NCCN1C(=O)Nc1ccc(Cl)cc1)Nc1ccc(F)cc1 (stereo unspecified) | -26 | 2
CN(C)CCN(C(=O)c1ccc(S(=O)(=O)N(C)c2ccccc2)cc1)c1nc2cc3c(cc2s1)OCO3 | -17 | 4
O=C(NN=Cc1ccccc1C(=O)O)c1cccc(S(=O)(=O)Nc2cccc(C(F)(F)F)c2)c1 | 3 | 5
COc1ccccc1NC(=O)CSc1nnc(-c2ccccn2)o1 | -22 | 12

The results go on:
SMILES	BJeLR lethal	ugtP null kill	Bead autofluor	Mtb hypoxia rep	Mtb hypoxia rep growth	PrP UTR inh	Sa RN4220 lethal
CC1=C(C(=O)N(C)CCC#N)C2(CCCCC2)OC1=O	-6	1	5521	nt	nt	-24	-0.7
CCOc1ccc(C(OC(=O)c2ccco2)C(=O)NCc2ccc(C)cc2)cc1 (stereo unspecified)	-2	3	?	-7	3	1	-6.1
Cn1c(O)c(C(=O)c2ccccc2)c(=O)n(C)c1=O	2	-3	2962	2	12	-10	0.5
CCOc1ccc(C2c3[nH]c4ccccc4c3CCN2C(=O)Cn2cncn2)cc1 (stereo unspecified)	-7	1	3965	2	7	-10	0.7
COc1cc(NC(=O)Nc2cccc(Cl)c2)c(OC)cc1NC(=O)CN1CCCCC1	1	38	2833	11	-20	-37	36
N#Cc1ccc(OC(=O)Cc2ccsc2)cc1	10	1	5802	4	9	-17	2.4
COC(=O)c1sccc1NC(=S)N1CCCC(C)C1 (stereo unspecified)	-13	9	3113	5	14	0	7.2
O=C(NC1CC2CCCC(C1)N2C(=O)Nc1ccccc1)C1CC1 (stereo unspecified)	-12	1	3538	-5	-1	-25	6.3
C=C(C)CN1C(=O)C2(OCCO2)c2cc(Br)ccc21	-6	8	3615	14	-3	nt	5.9
Cc1cc(C)n2nc(C(=O)OCC(=O)c3cc(C)n(C)c3C)nc2n1	4	2	4250	nt	nt	-20	2.0
COCCOC(=O)C1=C(C)N=C2SCCC(=O)N2C1c1ccc(OC(=O)c2ccco2)cc1 (stereo unspecified)	5	-6	8912	0	2	-24	1.4
COC(=O)C1=C(C)NC(C)=C(C(=O)OC)C1C(=O)OCc1nc2cc(C(=O)OC)ccc2c(=O)[nH]1	-12	-6	nt	-1	1	-19	0.8
COc1ccc(NC(=S)N2CCC(NC(=O)c3cccc(F)c3)CC2)cc1	5	nt	3018	nt	nt	-28	nt
O=C(NCc1ccccn1)c1cccc(NS(=O)(=O)c2ccc(Br)cc2)c1	nt	7	9076	8	0	-8	9.9
NC(=NOC(=O)c1ccc([N+](=O)[O-])cc1)c1ccccn1	nt	-4	nt	-4	-5	nt	2.2
Nn1c(COc2ccc(Cl)cc2)nc2ccccc2c1=O	4	4	2064	5	1	-91	4.2
CCCN(CCC)CCCNC(=O)CC(C(=O)N1CCc2ccccc21)n1ccnc1 (stereo unspecified)	4	-3	8682	-2	10	nt	-1.8
Cc1cccc(C)c1NC(=O)CN(C)CC(=O)Nc1ccc(C#N)c(Cl)c1	4	-4	4603	nt	nt	9	2.8
CC(/C=C/C=C/c1ccccc1)=NNC(=O)C(O)c1ccccc1 (stereo unspecified)	nt	-5	nt	3	-4	nt	4.7
Cc1ccc(S(=O)(=O)N2CN(CC3CCCO3)c3nc4ccccc4nc32)cc1 (stereo unspecified)	2	0	5208	3	7	-21	1.8
COc1cc2c(cc1OC)CN(C(=O)c1cc(S(=O)(=O)N3CCOCC3)ccc1C)CC2	-16	-4	?	-4	-2	-5	2.4
O=C(NCc1ccco1)C(=O)NCC1OCCN1S(=O)(=O)c1ccc(F)cc1 (stereo unspecified)	8	2	5585	-8	4	-13	3.8
O=C(/C=C/c1ccccc1)OCN1C(=O)c2ccccc2C1=O	-8	3	4161	5	-2	-32	0.9
OC(Cn1nnc2ccccc21)Cn1c(C(F)(F)F)nc2ccccc21 (stereo unspecified)	8	2	4601	nt	nt	-3	2.2
N#CCCn1cc(C(=O)Nc2ccc(F)cc2)c(-c2ccc([N+](=O)[O-])cc2)n1	-1	-3	4669	0	-11	-4	4.0
SMILES	BJeLR lethal	ugtP null kill	Bead autofluor	Mtb hypoxia rep	Mtb hypoxia rep growth	PrP UTR inh	Sa RN4220 lethal
CN(C)c1ccc(C=Nn2c(COc3ccccc3)n[nH]c2=S)cc1	nt	-4	nt	0	-4	nt	3.3
COC(=O)C1(O)CC(C(C)C)=NN1C(=O)c1ccc(Cl)cc1 (stereo unspecified)	5	0	4267	4	4	-18	3.4
COC(=O)CC1C(=O)NCCN1Cc1cn(-c2ccc(C)cc2)nc1-c1cccc(C)c1 (stereo unspecified)	1	-12	4577	-16	8	-39	-2.4
Cc1c(C)c(C)c(S(=O)(=O)N2CCNCC2)c(C)c1C	-4	5	4381	5	0	0	1.0
COc1cccc(CNC(=O)c2ccc(OCC(=O)N3CCOCC3)c(OC)c2)c1	-4	10	?	-2	-5	-5	4.3
COc1ccccc1CNC(=O)Cn1cc2c(n1)CCCC2	-10	5	6152	nt	nt	-10	1.1
CCOc1ccccc1C(c1c(O)nc(SC)[nH]c1=O)c1c(O)nc(SC)[nH]c1=O	-3	4	3979	6	7	nt	3.8
CN(Cc1ccc(Cl)c(Cl)c1)C(=O)CN1C(=O)NC2(CCCC2)C1=O	2	5	6182	11	0	-23	4.0
CC1CCc2c(sc(NC(=O)c3ccc(Cn4cc(Br)cn4)o3)c2C(N)=O)C1 (stereo unspecified)	-9	-8	12995	3	6	-34	-1.0
